YB-1 expr inh – YB-1 expression inhibition; 30,000 tested, 0.37% active; U2OS, qRT-PCR YB-1 vs CDIP delta delta Cp, 16 h; active compounds read high; zero = DMSO, each unit about twofold; delta delta Cp (YB-1 minus CDIP) (concentration not given with the values); AID 434959;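 active = delta delta Cp rounded down to an integer at or above 3, about 3 SD of DMSO wells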;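 also: higher means less YB-1 transcript or more CDIP transcript relative to DMSO; stock transfer was 100 nL into about 100 µL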
MITF inh – inhibitors of MITF | TRPM1 promoter luciferase, luminescence, 24 h | AID 2240 | inhibition, % (no concentration beside the values) | 37,000 tested, 0.28% active;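 active = most replicates at 85% or more, or half of them and the mean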;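 also: human melanocyte line stably carrying TRPM1 promoter luciferase reporter; 0% = vehicle wells and 100% = a positive control; the first replicate is given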
* hit, by the source's call; nt = no result given. Some of the compounds tested; the hit share may differ from the screen's.

Sequence of screens: MITF inh, YB-1 expr inh
[1] Cc1ccc(N2C(=O)NC(=O)C(CCc3ccccn3)(Cc3cccs3)C2=O)cc1 (stereo unspecified)
    -0.3, nt
[2] O=[N+]([O-])c1c(NCCO)ccc2nonc12
    -14.4, nt
[3] COc1cc(OC)c(OC)cc1CNC(C)C(O)c1ccccc1 (stereo unspecified)
    12.2, nt
[4] CN1CCN(CC(=O)Nc2ccc([N+](=O)[O-])cc2C(=O)c2ccccc2)CC1
    -19.8, nt
[5] O=c1c2ccccc2nc(CNCC2CCCO2)n1-c1ccc(F)cc1 (stereo unspecified)
    4.5, nt
[6] Cc1ccc(OC(=O)N(C)C[C@@H]2OCc3cnnn3CCCC(=O)N([C@H](C)CO)C[C@H]2C)cc1
    nt, 0.155
[7] Cc1ccc(OC(=O)N(C)C[C@H]2OCc3cnnn3CCCC(=O)N([C@H](C)CO)C[C@@H]2C)cc1
    nt, 0.354
[8] C[C@H]1CN([C@@H](C)CO)C(=O)CCCn2nncc2CO[C@H]1CN(C)C(=O)Oc1ccccc1
    nt, -0.629
[9] COc1ccc(OC(=O)N(C)C[C@H]2OCc3cnnn3CCCC(=O)N([C@@H](C)CO)C[C@H]2C)cc1
    nt, 0.265
[10] C[C@@H]1CN([C@@H](C)CO)C(=O)CCCn2nncc2CO[C@H]1CN(C)C(=O)Oc1ccccc1
    nt, 0.0246
[11] C[C@H](CO)N1C[C@H](C)[C@@H](CN(C)C(=O)Oc2cccc3ccccc23)OCc2cn(nn2)CCCC1=O
    nt, -0.135
[12] COc1ccc(OC(=O)N(C)C[C@H]2OCc3cnnn3CCCC(=O)N([C@H](C)CO)C[C@H]2C)cc1
    nt, -0.0483
[13] C[C@@H]1CN([C@@H](C)CO)C(=O)CCCn2nncc2CO[C@@H]1CN(C)C(=O)Oc1ccccc1
    nt, 0.00288
[14] C[C@H](CO)N1C[C@H](C)[C@@H](CN(C)C(=O)Oc2ccc3ccccc3c2)OCc2cnnn2CCCC1=O
    nt, -0.246
[15] C[C@@H]1CN([C@H](C)CO)C(=O)CCCn2cc(nn2)CO[C@H]1CN(C)C(=O)Oc1cccc2ccccc12
    nt, 0.275
[16] C[C@@H]1CN([C@@H](C)CO)C(=O)CCCn2cc(nn2)CO[C@H]1CN(C)C(=O)Oc1ccc2ccccc2c1
    nt, -0.548

Compound profiles, from the list above.
Listed for O=[N+]([O-])c1c(NCCO)ccc2nonc12 = MITF inh: -14.4; YB-1 expr inh: nt
Listed for C[C@H](CO)N1C[C@H](C)[C@@H](CN(C)C(=O)Oc2cccc3ccccc23)OCc2cn(nn2)CCCC1=O = MITF inh: nt; YB-1 expr inh: -0.135

Quoted from above for reference:
Sequence of screens: MITF inh, YB-1 expr inh
[7] Cc1ccc(OC(=O)N(C)C[C@H]2OCc3cnnn3CCCC(=O)N([C@H](C)CO)C[C@@H]2C)cc1
    nt, 0.354
[8] C[C@H]1CN([C@@H](C)CO)C(=O)CCCn2nncc2CO[C@H]1CN(C)C(=O)Oc1ccccc1
    nt, -0.629
[9] COc1ccc(OC(=O)N(C)C[C@H]2OCc3cnnn3CCCC(=O)N([C@@H](C)CO)C[C@H]2C)cc1
    nt, 0.265
[10] C[C@@H]1CN([C@@H](C)CO)C(=O)CCCn2nncc2CO[C@H]1CN(C)C(=O)Oc1ccccc1
    nt, 0.0246
